Sa growth 42C: S. aureus growth inhibition at 42 and 30 °C, primary screen, LtaS inhibitor project, RN4220, two temperatures | OD600, 20 h, 42 °C; active compounds read low | relative growth, % (test concentration not listed) | 170,000 tested, 0.53% active;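 active means growth at 42 °C up to 50% and 20 or more points under that at 30 °C, or under 10% at both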;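 further: 300 nL library stock went into each well; scaled to the means of positive and negative controls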
HCMV NEC inh: inhibitors of HCMV UL50-UL53 interaction, biochemical, HTRF; HCMV UL50-UL53 nuclear egress complex (human cytomegalovirus); normalized percent inhibition; inhibition, % (test concentration not listed); 190,000 tested, 0.15% active; AID 1918969, 2023;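 active means both replicates at 50% or more, plus weaker picks with an unusually low signal ratio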;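 further: stock transfer was 100 nL into about 20 µL; 0% = negative control wells and 100% = wells with untagged competitor protein; inactives centre near -12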
GIV Gai3 FP: inhibitors of GIV peptide binding to Galpha-i3, primary screen, biochemical, fluorescence polarization, FITC-GIV GBA peptide, rat Galphai3 | Guanine nucleotide-binding protein G(i) subunit alpha-3 (Rattus norvegicus), P08753 | 90 min; active compounds read low; scaled: aluminum fluoride 0%, vehicle 100% | percent of control (FP), % (test concentration not listed) | 210,000 tested, 0.42% active;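 active means replicate mean at 85% of control or lower, very high polarization wells dropped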;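 further: lower values mean more displacement of the GIV peptide from Galpha-i3; wells of about 15 µL received 100 nL stock; the first replicate is given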
Target sequence (P08753 whole entry, looked up): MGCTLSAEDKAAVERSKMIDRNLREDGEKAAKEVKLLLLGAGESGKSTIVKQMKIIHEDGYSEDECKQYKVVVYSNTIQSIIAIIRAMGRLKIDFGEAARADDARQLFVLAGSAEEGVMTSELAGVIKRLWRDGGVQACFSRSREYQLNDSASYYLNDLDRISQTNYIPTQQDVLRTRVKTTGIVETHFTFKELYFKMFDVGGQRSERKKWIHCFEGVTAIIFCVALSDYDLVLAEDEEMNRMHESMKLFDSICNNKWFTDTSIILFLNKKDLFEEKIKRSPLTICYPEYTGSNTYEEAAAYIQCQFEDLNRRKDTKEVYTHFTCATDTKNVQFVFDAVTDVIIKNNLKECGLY
Sa growth 42C second temp: also measured in Sa growth 42C; calls as there; relative growth, %; measured here: growth at 30 °C;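 optical density after 20 h as mean of two plates; 100% = untreated growth and lower means inhibition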
* hit, by the source's call; · = not tested or not shown; & = joins results of further samples.

Values run as follows: HCMV NEC inh	Sa growth 42C second temp	Sa growth 42C	GIV Gai3 FP
CCOC(=O)c1c(C)[nH]c(C)c1S(=O)(=O)NCCCN1CCc2ccccc2C1
  -24.2	·	·	105.7
Cc1nn(CCCC(=O)N2CCN(c3cccc(Cl)c3)CC2)c(=O)c2c1sc1ccccc12
  -5.9	·	·	99.8
COC(=O)/C(C#N)=C1\C=Cc2ccccc2N1
  -81.3	81.5	115.7	·
C#CCSc1nnc(-c2ccccc2)o1
  0.9	76.7	100.8	98.5
Cc1ccn2cc(-c3cccc(NC(=O)c4sc(-c5ccccc5)nc4C)c3)nc2c1
  -29.3	·	·	107.9
Cc1cc(C)nc(NS(=O)(=O)c2ccc(NC(=O)/C=C/c3cccc4ccccc34)cc2)n1
  -26.7	·	·	109.4
COc1ccc(OC)c2c(C)cc(C)nc12
  -20.4	77.1	110.6	106.1
Nc1ccc2oc(Cc3ccc(Cl)cc3)nc2c1
  -68.9&-26.1	89.5&90.0	112.6&72.3	107.0&101.7
CCCc1nc2c(c(=O)n1CC(=O)Nc1cc(C)on1)CCN(Cc1ccccc1)C2
  -26.2	·	·	103.6
CCn1cc(C(=O)NCc2ccccc2OC)c(=O)c2cc(S(=O)(=O)N3CCCCCC3)ccc21
  -15.5	82.0	106.7	103.4
CC1CCCN(C(=O)c2ccc3c(=O)n4nc(Nc5ccccc5)sc4nc3c2)C1 (stereo not drawn)
  0.1	91.8	100.6	96.8
O=C1CCCCc2ccccc21
  -4.2	90.5	86.1	·
N#CC1(C#N)C(c2ccc(F)cc2)C(C(=O)c2ccccc2)C2C=Cc3ccccc3N21 (stereo not drawn)
  -26.7	92.1	83.1	·
COc1ccccc1CNC(=O)C1(C)Cn2c(cc3ccsc32)C(=O)N1c1ccc(Cl)cc1C (stereo not drawn)
  -23.3	·	·	108.0
O=c1c2cccc3c2c(nn1CN1CCCCC1)-c1ccccc1-3
  ·	78.3	152.2	100.6

Following part:
Values run as follows: HCMV NEC inh	Sa growth 42C second temp	Sa growth 42C	GIV Gai3 FP
Cc1cccc(CCNC(=O)c2cc(S(=O)(=O)N3CCCCC3)c[nH]2)c1
  ·	78.4	88.1	110.0
CNC(=O)Cn1ncc2c3ccccc3n(Cc3cccc(Cl)c3)c2c1=O
  -15.6	80.1	89.4	211.3
O=C(Oc1ccccc1)C1CCN(c2nc3ccccc3[nH]2)CC1
  -1.2&-18.2	73.3	85.7	105.4&102.7
CCN(CC)CCn1c(NCc2ccc(N(C)C)cc2)nc2ccccc21
  -13.9	·	·	97.6
CC(C)(C)C(=O)OCc1nc(-c2ccc(O)c(O)c2)cs1
  25.6	59.9	90.5	105.5
COc1cc(OC)cc(-c2noc(-c3cn(C)c4cc(N5CCOCC5)c(F)cc4c3=O)n2)c1
  -37.8	·	·	102.3
CCOC(=O)c1nnc2ccnn2c1N
  -49.0	78.8	101.1	100.9
COc1cccc(-c2nc(CS(=O)CC(=O)O)c(C)o2)c1 (stereo not drawn)
  ·	85.7	118.5	104.5
CN(C(=O)CSc1nnc(-c2ccccc2)n1-c1ccccc1)C1CCS(=O)(=O)C1 (stereo not drawn)
  -10.2	94.2	91.9	·
Cn1c(=O)c(=O)n(C)c2cc(N3CCCCC3)c(NC(=O)C3CC3)cc21
  -30.6	·	·	103.5
Cc1cccn2c(=O)c(/C=C(\C#N)c3nc4ccccc4[nH]3)c(Oc3ccc(C(C)(C)C)cc3)nc12
  -11.2	99.1	109.7	112.8
COc1ccc(CN=C(N)N)cc1
  ·	84.9	100.5	101.9
COc1ccc(NC(=O)Cn2c(=O)n(Cc3ccccc3Cl)c(=O)c3cc(OC)c(OC)cc32)cc1
  -47.2	98.5	111.9	108.3
CC(C)c1ccc(NC(=O)C(Cc2ccccc2)NS(=O)(=O)c2ccc3c(c2)oc(=O)n3C)cc1 (stereo not drawn)
  -2.2	90.6	98.3	102.3
CC(=O)NCCc1nc2cc(NC(=O)COc3ccc(Cl)cc3)ccc2n1C
  -24.3	·	·	105.5

(listing goes on)
Values run as follows: HCMV NEC inh	Sa growth 42C second temp	Sa growth 42C	GIV Gai3 FP
CCCC(=O)Nc1cccc(-c2nc3ncccc3o2)c1
  -2.9	91.4	96.7	109.0
O=C(Nc1cccc2[nH]ccc12)C1CCCCC1
  28.2	81.6	84.0	103.0
COc1ccc(/C=C2\SC(N(C)c3ccc(Cl)cc3)=NC2=O)c(OC)c1OC
  ·	72.0	91.1	112.9
Cc1ccc(-c2c(C(F)(F)F)[nH]n3c(=O)cc(C)nc23)cc1
  -13.7	·	·	99.7
NC(N)=NS(=O)(=O)c1ccc(NC(=S)NC(=O)/C=C/c2ccc(F)cc2)cc1
  2.3	87.2	63.0	·
O=c1cc(-c2cccs2)oc2ccc(O)cc12
  -24.9	86.6	84.7	104.4
O=C(CSc1nc2c([nH]c3ccccc32)c(=O)n1-c1ccccc1)Nc1cccc(C(F)(F)F)c1
  ·	89.9	100.1	103.0
COc1cc(C2CC(=O)Nc3nc(N)[nH]c(=O)c32)ccc1OCc1ccc(F)cc1 (stereo not drawn)
  -26.2	·	·	99.9
COc1ccccc1Nc1nc2c(s1)CCCC2
  -12.2	86.9	109.3	·
CC(=O)c1ccc(NC(=O)c2nc(-c3ccc(Cl)cc3)n3c2CCCCC3)cc1
  ·	97.5	113.7	104.0
O=C1N(Cc2ccc(F)cc2)CCN1C1CCN(S(=O)(=O)c2cc(F)cc(F)c2)CC1
  14.0	·	·	104.8
COc1ccc(OC)c(/C=N/N=C2\SCC(=O)N2Cc2ccco2)c1
  -13.6	88.3	107.9	100.7
CCN(CC)CCNC(=O)c1cc2c(=O)oc3ccc(C)cc3c2s1
  -84.9	87.5	96.7	103.4
O=C(O)C(=Cc1nc(-c2ccccc2)n2ccccc12)C(=O)O
  -8.5	88.9	115.1	·
CCn1c(=O)c2ccccc2n(CC)c1=O
  8.1	94.9	106.0	·

(next part)
Values run as follows: HCMV NEC inh	Sa growth 42C second temp	Sa growth 42C	GIV Gai3 FP
OCN(Cc1ccccc1)Cc1ccccc1
  -17.7	85.8	103.5	·
O=C(Nc1nnc(COc2ccc(Br)cc2)s1)C12CC3CC(CC(C3)C1)C2
  -6.2	·	·	96.3
COc1cccc(-n2c(C)nc3cc(C(=O)O)ccc32)c1
  21.9	105.4	106.7	103.3
CC1COC2=C(N3CCN(C)CC3)C(F)=CC3C(=O)C(C(=O)O)=CN1C23 (stereo not drawn)
  -32.4	-0.3*	-0.5*	·
C/C(=C/C(=O)c1c(O)c2ccccc2n(C)c1=O)Nc1ccc(N)cc1
  -19.8	87.1	87.5	·
Cn1ccnc1SCC(=O)c1ccccc1
  ·	81.5	116.1	101.2
Cc1cc(C)c2cc(C(=O)N(C)c3ccc(F)cc3F)[nH]c2c1
  -4.2	93.1	91.2	100.0
Nc1ccccc1-c1nnc(-c2ccccc2)c(=O)[nH]1
  -23.7	66.0	106.2	·
C(=N\N1CCCCC1)/c1cn(-c2ccccc2)nc1-c1cccs1
  -28.6	89.5	98.4	·
CCn1c(COc2cccc(C)c2)nc2ccccc21
  ·	91.1	87.0	103.2
CCN(Cc1ccccc1)c1ncc(NS(=O)(=O)c2ccccc2)cc1C(=O)O
  -52.2	·	·	112.4
COCCn1c(C)cc(O)c(C(c2ccccc2Cl)N2CCN(c3ccccc3)CC2)c1=O (stereo not drawn)
  ·	88.8	91.8	96.6
CCOc1ccc(N=c2ccc3ccccc3n2C)cc1
  ·	91.7	100.5	102.7
CC[N+](CC)(CC)CC(=O)Nc1c(C)cccc1C
  2.8&1.3&-16.9&-10.0	·	·	100.2
COc1ccc(S(=O)(=O)N2CCCC(C(=O)N3CCN(C)CC3)C2)cc1OC (stereo not drawn)
  18.5	89.7	70.4	99.0

The results go on.
Values run as follows: HCMV NEC inh	Sa growth 42C second temp	Sa growth 42C	GIV Gai3 FP
CC(=O)O/N=C/c1[nH]ncc1Br
  -22.1	87.1	95.9	103.9
CCS(=O)(=O)NC1CCN(Cc2ccccc2)CC1
  -19.9	94.9	86.6	·
COC(=O)c1cc(NC(=O)c2ccc3c(c2)N(Cc2cccc(Cl)c2)C(=O)c2ccccc2S3=O)cc(C(=O)OC)c1 (stereo not drawn)
  ·	78.0	102.5	104.3
Cc1ccc(CNC(=O)CCCn2c(=O)c3ccccc3n(CC(=O)Nc3ccc(C)cc3)c2=O)cc1
  -10.5	91.7	96.7	102.8
CC1Cc2ccccc2N1C(=O)COC(=O)c1ccc(Cl)cc1 (stereo not drawn)
  -1.9	98.0	95.1	·
CCn1c(=O)c(-c2noc(CCC(=O)Nc3ccc(OC)c(Cl)c3)n2)nn(-c2ccccc2)c1=O
  -0.9	·	·	104.9
Fc1ccc(N2COc3cc4c(cc3C2)OCO4)cc1
  -50.1	76.9	87.3	105.2
O=C(c1ccc(F)cc1)N1CCC(c2nc3ccccc3s2)CC1
  -15.9&-5.2	78.0	104.3	103.4&105.1
CCc1nn(CC(=O)N2CCC(C)CC2)c(=O)c2cc3occc3n12
  -0.1	98.5	91.6	103.2
CC(C)(C)OC(=O)N1CCC(c2c(C(=O)NCCN3CCC(Cc4ccccc4)CC3)cnn2-c2cccc(Cl)c2)CC1
  ·	58.5	151.4	102.7
O=C(CN1C(=O)COc2ccc(C(=O)N3CCN(Cc4ccc5c(c4)OCO5)CC3)cc21)N1CCCC1
  20.0	·	·	106.3
O=C(O)c1ccc(C(=O)c2ccc3c(c2)C(=O)N(CC2CCCO2)C3=O)cc1 (stereo not drawn)
  ·	85.6	115.8	102.2
O=C(C1CCCC1)N(c1ccccc1)C1C=CS(=O)(=O)C1 (stereo not drawn)
  8.2	88.8	101.1	97.7
Cc1ccc(S(=O)(=O)/N=C2/C=C(Sc3ncn[nH]3)C(=O)c3ccccc32)cc1
  31.8	0.8*	2.1*	5.9*
C1=C(CCNc2ncnc3c(-c4ccccc4)noc23)CCCC1
  0.2	·	·	109.6

Next part.
Values run as follows: HCMV NEC inh	Sa growth 42C second temp	Sa growth 42C	GIV Gai3 FP
N#CC(C(=O)CN1CCN(Cc2ccccc2)CC1)c1ccccc1 (stereo not drawn)
  -22.8	102.3	115.7	101.9
COc1ccccc1-n1nc(-c2ccccc2)c2cnc3cc(C(F)(F)F)ccc3c21
  -6.6	99.8	99.5	102.0
N#Cc1ccc(CN2CCCc3ccccc32)cc1
  -13.4	94.8	90.1	105.1
CCN1C(=O)c2ccc(C(=O)Nc3cc(C)on3)cc2C1=O
  -51.0	97.8	106.9	106.5
O=C(O)CN1C(=O)SC(CC(=O)Nc2nccs2)C1=O (stereo not drawn)
  -13.8	88.2	92.9	103.0
CCOC(=O)c1nc2ccccc2n(C(C)=O)c1=O
  -53.8&-91.4	87.8	100.5	102.0&99.1
Cn1c(=O)c2c(nc(NCc3ccccc3)n2Cc2ccc(Cl)cc2Cl)n(C)c1=O
  -25.6	·	·	98.7
CCOC(=O)c1ccc(Nc2c(-c3ccc(O)c(OC)c3)nc3nc[nH]n23)cc1
  ·	86.7	101.9	101.2

Some of the entries above in another layout.
> N#CC(C(=O)CN1CCN(Cc2ccccc2)CC1)c1ccccc1 (stereo not drawn)
  HCMV NEC inh = -22.8; Sa growth 42C second temp = 102.3; Sa growth 42C = 115.7; GIV Gai3 FP = 101.9
> COc1ccccc1-n1nc(-c2ccccc2)c2cnc3cc(C(F)(F)F)ccc3c21
  HCMV NEC inh = -6.6; Sa growth 42C second temp = 99.8; Sa growth 42C = 99.5; GIV Gai3 FP = 102.0
> N#Cc1ccc(CN2CCCc3ccccc32)cc1
  HCMV NEC inh = -13.4; Sa growth 42C second temp = 94.8; Sa growth 42C = 90.1; GIV Gai3 FP = 105.1

Profiles as entered above. Order of screens: HCMV NEC inh, Sa growth 42C second temp, Sa growth 42C, GIV Gai3 FP
Profile of `CC(C)(C)OC(=O)N1CCC(c2c(C(=O)NCCN3CCC(Cc4ccccc4)CC3)cnn2-c2cccc(Cl)c2)CC1` : ·, 58.5, 151.4, 102.7
Profile of `CC1CCCN(C(=O)c2ccc3c(=O)n4nc(Nc5ccccc5)sc4nc3c2)C1` (stereo not drawn) : 0.1, 91.8, 100.6, 96.8
Profile of `CC1COC2=C(N3CCN(C)CC3)C(F)=CC3C(=O)C(C(=O)O)=CN1C23` (stereo not drawn) : -32.4, -0.3*, -0.5*, ·
Profile of `COCCn1c(C)cc(O)c(C(c2ccccc2Cl)N2CCN(c3ccccc3)CC2)c1=O` (stereo not drawn) : ·, 88.8, 91.8, 96.6
Profile of `Cn1c(=O)c(=O)n(C)c2cc(N3CCCCC3)c(NC(=O)C3CC3)cc21` : -30.6, ·, ·, 103.5

Source: PubChem BioAssay (ICCB-Longwood Screening Facility, Harvard Medical School)

Rows are unselected. Share with any hit: about 0.85%.
